UUG fidelity: modulators of start codon recognition fidelity in yeast | activity score, % at 18.7 µM | S. cerevisiae UUG-firefly luciferase reporter, luminescence/redox ratio | AID 602363 | 0.13% of 350,000 active;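 active means replicate mean at a twofold rise or more, about +100% in these data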;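 further: firefly luciferase made from a UUG start codon reports start codon fidelity; reporter light over untreated wells divided by growth signal over untreated wells; some hits fall short of that in this replicate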
MT1-MMP act inh: inhibitors of human MT1-MMP activation. GFP/RFP ratio change, % at 20 µM. P50281. 0.061% of 360,000 active. HT1080 RFP-PRO-GFP cells, GFP/RFP ratio fluorescence, overnight; percent of plate control window, DMSO zero. AID 651647;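 active means GFP/RFP ratio change of at least 30% with cell ATP level not reduced by more than half and red fluorescence within 50% of control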; further: strong numbers were not always called active
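Compound: 20 µM single dose, 1% DMSO / System: HT1080 RFP-PRO-GFP cells / Controls: DMSO and RFP-L50D-GFP cell wells / Read-out basis: GFP/RFP fluorescence ratio / Schedule: overnight compound exposure at 37 °C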
HIV Env fusion: blocks HIV Env-driven cell-cell fusion; HeLa-JRFL Env/CEM21 cell fusion, luciferase; inhibition, % at 12.3 µM; 1.1% of 360,000 active; AID 651610;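 active means mean replicate inhibition score of at least 50 and every replicate individually at or above 50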;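 further: 0% = plate neutral controls and 100% = maraviroc near 300 nM; one replicate is shown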
MT1-MMP act inh RFP: further read-out of MT1-MMP act inh, marked with its call; RFP signal change, %; measured here: RFP expression control read;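 0 = vehicle wells; hits needed this value within 50% of zero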
* = called active by the depositor; nt = not tested or not shown; & = joins results of further samples; [ ] = remark or other dose.

SMILES	UUG fidelity	MT1-MMP act inh	MT1-MMP act inh RFP	HIV Env fusion
CNC[C@@H]1Oc2cc(C#C[C@@H](C)O)ccc2S(=O)(=O)N([C@H](C)CO)C[C@H]1C	-5	nt	nt	-3[16.7 µM]
C[C@H]1CN([C@@H](C)CO)C(=O)Cc2cc(NS(=O)(=O)c3ccc(Cl)cc3)ccc2O[C@@H]1CN(C)Cc1ccc(C(F)(F)F)cc1	5	nt	nt	13[16.7 µM]
C[C@@H]1CCCCO[C@H](CN(C)Cc2ccc3c(c2)OCO3)[C@@H](C)CN([C@@H](C)CO)C(=O)c2cc(NS(=O)(=O)c3ccc(Cl)cc3)ccc2O1	6	nt	nt	4[16.7 µM]
C[C@H](CO)N1C[C@H](C)[C@H](CN(C)C)Oc2ccc(NC(=O)NC3CCCCC3)cc2C1=O	4	nt	nt	2[16.7 µM]
CC(=O)N[C@H]1CC[C@@H](CCNC(=O)Nc2ccc(C(F)(F)F)cc2)O[C@@H]1CO	18	nt	nt	18[16.7 µM]
COc1ccc(S(=O)(=O)N(C)C[C@@H]2Oc3c(NS(C)(=O)=O)cccc3C(=O)N([C@H](C)CO)C[C@H]2C)cc1	5	nt	nt	17[16.7 µM]
CC(C)C#Cc1cnc2c(c1)C(=O)N([C@@H](C)CO)C[C@@H](C)[C@H](CN(C)C(=O)CN1CCOCC1)O2	5	nt	nt	-9[16.7 µM]
O=C(C[C@H]1CC[C@H](NC(=O)Nc2ccc3c(c2)OCO3)[C@H](CO)O1)NCc1ccc(F)cc1	-15	nt	nt	12[16.7 µM]
CC(C)C#Cc1ccc([C@H]2[C@H](C#N)N(C(=O)C3CC3)[C@H]2CO)cc1	21	nt	nt	-25[16.7 µM]
COCCNC(=O)C[C@H]1C[C@@H]2c3cc(NC(=O)c4cccnc4)ccc3O[C@@H]2[C@@H](CO)O1	-12	nt	nt	2[16.7 µM]
COc1cccc(-c2cnc3c(c2)C(=O)N([C@H](C)CO)C[C@H](C)[C@H](CN(C)S(=O)(=O)c2cccc(OC)c2)O3)c1	1	nt	nt	0[16.7 µM]
CN1CCN(C(=O)C[C@H]2CC[C@@H](NC(=O)Cc3ccccn3)[C@H](CO)O2)CC1	-11	nt	nt	30[16.7 µM]
Cc1noc(C)c1S(=O)(=O)Nc1ccc2c(c1)C(=O)N([C@@H](C)CO)C[C@@H](C)[C@@H](CN(C)C(=O)c1ccncc1)OCCCC[C@@H](C)O2	11	nt	nt	-18[16.7 µM]
C[C@H](CO)N1C[C@H](C)[C@H](CN(C)C(=O)Cc2ccccc2)OCCCC[C@H](C)Oc2ccc(NC(=O)Cc3ccccc3)cc2C1=O	18	nt	nt	-30[16.7 µM]
COc1ccccc1C(=O)Nc1ccc2c(c1)C(=O)N(C)C[C@@H](OC)[C@H](C)CN(C(C)=O)[C@@H](C)CO2	-1	nt	nt	13[16.7 µM]
C[C@H]1CN([C@@H](C)CO)C(=O)c2cccc(NS(C)(=O)=O)c2O[C@H]1CN(C)Cc1ccc(C(=O)Nc2ccccc2N)cc1	-9	nt	nt	17[16.7 µM]
C[C@@H]1CN([C@H](C)CO)C(=O)c2cc(NS(=O)(=O)c3ccc(F)cc3)ccc2O[C@@H](C)CCCCO[C@H]1CN(C)C(=O)Nc1ccc2c(c1)OCO2	-7	nt	nt	-18[16.7 µM]
Cc1noc(C)c1S(=O)(=O)N(C)C[C@@H]1OCCCC[C@@H](C)Oc2ccc(NS(=O)(=O)c3ccc(F)cc3)cc2C(=O)N([C@H](C)CO)C[C@@H]1C	-1	nt	nt	-14[16.7 µM]
O=C(C[C@@H]1CC[C@H](NC(=O)CC2CC2)[C@@H](CO)O1)NCc1ccc(-c2ccccc2)cc1	-12	nt	nt	-7[16.7 µM]
O=C(C[C@@H]1C[C@H]2c3cc(NS(=O)(=O)c4ccccc4)ccc3O[C@H]2[C@H](CO)O1)NCC1CC1	14	nt	nt	-30[16.7 µM]
CC(C)C#Cc1ccc2c(c1)O[C@@H](CN(C)Cc1ccccn1)[C@@H](C)CN([C@H](C)CO)S2(=O)=O	61*	nt	nt	1[16.7 µM]
C[C@@H]1CCCCO[C@H](CN(C)C)[C@@H](C)CN([C@@H](C)CO)C(=O)c2cc(NS(=O)(=O)c3cccs3)ccc2O1	-17	nt	nt	14[16.7 µM]
CCCC#Cc1ccc2c(c1)O[C@@H](CN(C)C(=O)c1ccccc1F)[C@@H](C)CN([C@@H](C)CO)S2(=O)=O	-12	nt	nt	4[16.7 µM]
CNC[C@H]1OCCCC[C@@H](C)Oc2ccc(NS(=O)(=O)c3ccc(F)cc3)cc2C(=O)N([C@H](C)CO)C[C@@H]1C	-17	nt	nt	11[16.7 µM]
CCS(=O)(=O)Nc1ccc2c(c1)C(=O)N(C)C[C@H](OC)[C@H](C)CN[C@@H](C)CO2	-12	nt	nt	-1[16.7 µM]
COc1ccc(S(=O)(=O)Nc2ccc3c(c2)C(=O)N([C@H](C)CO)C[C@H](C)[C@H](CN(C)CC2CC2)OCCCC[C@@H](C)O3)cc1	7	nt	nt	23[16.7 µM]
COc1ccc(NC(=O)CN2CCN(S(=O)(=O)c3cccs3)CC2)cc1Cl	13	2	-1	nt
COc1ccc(CCN(C)C(=O)CN2C(=O)NC3(CCCCCC3)C2=O)cc1OC	2	-5	-4	nt
O=C1[C@H]2[C@@H](c3ccc(C(F)(F)F)cc3)N[C@]3(CCCN(Cc4ccco4)C3=O)[C@H]2C(=O)N1Cc1ccccc1	-13	5	2	nt
Cc1nc2ccc(NC(=O)c3ccccc3)cc2c(=O)n1Cc1ccc(F)cc1	-5	-13	-26	nt
Cc1cn([C@H]2C[C@H](O)[C@@H](CNC(=O)[C@@H]3CCCN3Cc3ccccc3)O2)c(=O)[nH]c1=O	-18	7	6	nt
CSCCC(NC=O)C(=O)NC(C)C(=O)O (stereo not drawn)	-3	1	4	nt
O=C(COC(=O)Cc1ccc(Cl)cc1)NCc1ccc(F)cc1	-19	-1	2	nt
CCCC(=O)N1CCCC1(C)C(=O)Nc1ccc(OC(F)F)cc1 (stereo not drawn)	-4	0	5	nt
Cc1ccc(CNC(=O)CN2C(=O)NC3(CC(C)CC(C)(C)C3)C2=O)cc1 (stereo not drawn)	9	1	3	nt
Cc1ccc(C)c(C(=O)COC(=O)c2ccc(C)c(S(=O)(=O)N3CCOCC3)c2)c1	-4	0	-2	nt
C[C@H]1CN([C@@H](C)CO)C(=O)CCCn2nncc2CO[C@H]1CN(C)S(=O)(=O)c1cccs1	-10&-10	1	5	nt
O=c1cc(-c2ccccc2)oc2cc(O)c(O)c(O)c12	-41	-9	-6	nt
O=C(Nc1ccc(N2CCN(C(=O)c3ccco3)CC2)cc1)c1cc(Br)ccc1Cl	-11	-9	-19	nt
CC1CCC(NC(=O)COC(=O)c2ccco2)CC1 (stereo not drawn)	-22	1	3	nt
Cc1ccc(C(=O)CCC(=O)NNC(=O)c2ccccc2O)cc1	-7	2	5	nt
CC(C)CNC(=O)C1(N2C(=O)c3ccccc3C2=O)CCCC1	-12	1	7	nt
C(=NOCc1ccccc1)c1ccccn1	-9	-1	2	nt
COCCN(CCOC)Cc1cc(=O)oc2cc(C)c(Cl)cc12	-2	3	0	nt
COc1ccc(OCCN2CCC(C(=O)NC(c3ccccc3)c3ccc4ccccc4n3)CC2)cc1 (stereo not drawn)	6	2	0	nt
Cc1ccc(S(=O)(=O)N2CCOCC2)cc1C(=O)NC1CCN(Cc2ccccc2)CC1	-22	1	0	nt
S=C(CSc1ccccc1)Nc1cccc2ccccc12	-25	-1	-3	nt
CSCCC(NC(=O)c1ccccc1Cl)C(=O)N1CCCCCCC1 (stereo not drawn)	-4	-5	-2	nt
CC1CCCC(C)N1C(=O)COC(=O)c1c[nH]c2ccccc12 (stereo not drawn)	-7	1	2	nt
Cc1ccc(NC(=O)CN(C)C(C)C(=O)N2CC(C)CC(C)C2)cc1 (stereo not drawn)	-9	-4	-4	nt

Going on with the list:
SMILES	UUG fidelity	MT1-MMP act inh	MT1-MMP act inh RFP	HIV Env fusion
CCOc1ccccc1OCC(=O)Nc1c(C)n(C)n(-c2ccccc2)c1=O	-13	-4	-2	nt
COc1ccc(C(=O)NCC2COc3ccccc3O2)cc1S(=O)(=O)N1CCOCC1 (stereo not drawn)	-1	5	-1	nt
O=C(NNC(=O)c1ccc2ccccc2c1)c1ccc(Cl)cc1	-6	5	0	nt
N#Cc1ccccc1OCC(=O)Nc1cc(S(=O)(=O)N2CCCCC2)ccc1N1CCOCC1	-23	-3	-4	nt
O=C(c1cc2ccccc2o1)N1CCN(S(=O)(=O)c2c(F)cccc2F)CC1	-17	2	1	nt
COc1cccc(CN(C)C(=O)c2ccc(S(=O)(=O)Nc3ccccc3F)cc2)c1OC	24	2	-4	nt
O=C(CSc1nc2ccccc2c(=O)n1-c1ccc(F)cc1)NC1CC1	-17	0	-2	nt
Cc1cn([C@H]2C[C@H](O)[C@@H](CNC(=O)[C@H](N)C3CC3)O2)c(=O)[nH]c1=O	13	-1	4	nt
O=C(COC(=O)c1cccnc1SC(F)F)NC1CC1	-16	-2	-1	nt
Cc1cc(Br)ccc1NC(=O)CN(C)C(=O)C1CCN(c2ncnc3sc(C)c(C)c23)CC1	6	0	-20	nt
Cc1c(Cl)cccc1NC(=O)COC(=O)Cc1ccsc1	-11	-2	1	nt
Cc1cc(C)c2c(=O)n3c(nc2c1)C(C)NC(=O)c1cccnc1-3 (stereo not drawn)	-13	1	1	nt
COc1ccc2ccc(=O)oc2c1CC(=O)C(C)C	-7	4	6	nt
Cc1ccc(S(=O)(=O)N2C[C@H]3C(=O)C[C@@H](c4ccc(Cl)cc4)N(S(=O)(=O)c4ccc(C)cc4)[C@H]3C[C@H]2c2cccc3ccccc23)cc1	-16	3	-2	nt
O=C1NCC(Nc2ccc(Cl)cc2)C(=O)N1 (stereo not drawn)	3	1	5	nt
Cc1csc(=O)n1CC(=O)Nc1nc2ccccc2s1	12	-4	1	nt
CCOc1ccc(NC(=O)CN(C)C(=O)CSc2ccccc2)cc1OCC	-17	-9	-9	nt
CC(=O)OC1CC2C(C)(C)C(=O)C=CC2(C)C2CCC3(C)C(c4ccoc4)OC(=O)C4OC43C12C (stereo not drawn)	3	3	-12	nt
CC1(C(=O)NS(=O)(=O)Cc2cccc(Cl)c2)CCN1C(=O)C1CCCCC1 (stereo not drawn)	-1	-3	0	nt
O=C(NNC(=O)c1cccc2ccccc12)c1ccc(Cl)cc1	-13	10	-5	nt

Some of the entries above, reformatted.
smiles,UUG fidelity,MT1-MMP act inh,MT1-MMP act inh RFP,HIV Env fusion
Cc1cn([C@H]2C[C@H](O)[C@@H](CNC(=O)[C@H](N)C3CC3)O2)c(=O)[nH]c1=O,13,-1,4,nt
O=C(COC(=O)c1cccnc1SC(F)F)NC1CC1,-16,-2,-1,nt
Cc1cc(Br)ccc1NC(=O)CN(C)C(=O)C1CCN(c2ncnc3sc(C)c(C)c23)CC1,6,0,-20,nt
Cc1c(Cl)cccc1NC(=O)COC(=O)Cc1ccsc1,-11,-2,1,nt
Cc1cc(C)c2c(=O)n3c(nc2c1)C(C)NC(=O)c1cccnc1-3 (stereo not drawn),-13,1,1,nt
COc1ccc2ccc(=O)oc2c1CC(=O)C(C)C,-7,4,6,nt
Cc1ccc(S(=O)(=O)N2C[C@H]3C(=O)C[C@@H](c4ccc(Cl)cc4)N(S(=O)(=O)c4ccc(C)cc4)[C@H]3C[C@H]2c2cccc3ccccc23)cc1,-16,3,-2,nt
O=C1NCC(Nc2ccc(Cl)cc2)C(=O)N1 (stereo not drawn),3,1,5,nt
Cc1csc(=O)n1CC(=O)Nc1nc2ccccc2s1,12,-4,1,nt
CCOc1ccc(NC(=O)CN(C)C(=O)CSc2ccccc2)cc1OCC,-17,-9,-9,nt
CC(=O)OC1CC2C(C)(C)C(=O)C=CC2(C)C2CCC3(C)C(c4ccoc4)OC(=O)C4OC43C12C (stereo not drawn),3,3,-12,nt
CC1(C(=O)NS(=O)(=O)Cc2cccc(Cl)c2)CCN1C(=O)C1CCCCC1 (stereo not drawn),-1,-3,0,nt
O=C(NNC(=O)c1cccc2ccccc12)c1ccc(Cl)cc1,-13,10,-5,nt

New compounds follow
SMILES	UUG fidelity	MT1-MMP act inh	MT1-MMP act inh RFP	HIV Env fusion
O[C@@H]1C[C@H](c2ccccc2)N(CC2CCCCC2)C[C@H]1n1cc(C2CC2)nn1	-10	0	0	nt
COc1cccc(-c2cnc(C(O)c3ccc(C)c(F)c3)[nH]2)c1 (stereo not drawn)	-17	-1	-2	nt
Cc1ccc(NS(=O)(=O)c2cccc(C(=O)NC3CCN(Cc4ccccc4)CC3)c2)c(C)c1	-13	4	-15	nt
Cc1cccc(S(=O)(=O)NC(=O)C2(C)CCN2C(=O)CCC2CCCC2)c1 (stereo not drawn)	-11	3	8	nt
O=C(CCCNC(=O)c1ccc(Cl)cc1)Nc1ccc(F)c(S(=O)(=O)N2CCOCC2)c1	-14	3	-4	nt
N#Cc1cc([N+](=O)[O-])ccc1NC(=O)CSc1n[nH]c(=O)n1C1CC1	-8	1	2	nt

A portion of the library; rates above refer to the full screens.
